Mtb bLac sens: beta-lactam sensitization of Mtb H37Rv; M. tuberculosis H37Rv growth with meropenem, percent inhibition; hits of this screen are not shown here; inhibition, % at 25 µM; 330,000 tested, 0.27% active; AID 434955;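 active = about 74% or more and at least 40 points above the plate without the antibiotic, then above 30% in a dose series; inconclusive = first-round hits that could not be retested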;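 also: growth measured after seven days incubation then overnight dye step; 0% = bacteria only wells and 100% = bacteria with antibiotic; twin plates without the antibiotic show which effects depend on it; some results filed as inactive read as strong as hits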
YopH PTP inh: YopH (Yersinia) phosphatase inhibition; AID 898; inhibition, %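 (about 10 µM by stock and volumes)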; fluorescence Ex485/Em525; 140,000 tested, 0.16% active;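 active = inhibition of 50% or more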;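 also: controls were vehicle for no effect and minimum signal wells for full effect; inactives centre near -20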
Mtb growth: M. tuberculosis H37Rv growth inhibitors, H37Rv strain (AID 1626). M. tuberculosis H37Rv growth inhibition; higher % means a stronger effect. inhibition, % at 10 µM; hits with a dose series show IC50 in µM. 220,000 tested, 0.95% active;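 active = confirmed in a dose series; inconclusive = inhibition above 80% but not taken into the dose series; inactive = below 80% or under 30% at every dose of the series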;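 also: bacteria incubated seven days before Alamar blue readout; 0% = bacteria only wells and 100% = bacteria with antibiotic wells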
RecA splice inh: inhibitors of M. tuberculosis RecA intein splicing; P9WHJ3; cell-free RecA intein splicing, fluorescence; 290,000 tested, 0.75% active; inhibition, %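 (about 9 µM by stock and volumes)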; in the data active = inhibition above about 30%; inconclusive = no clear call, values can overlap the other calls;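 also: 0% = vehicle wells and 100% = reference inhibitor control wells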
Target sequence (P9WHJ3 whole entry, looked up, canonical isoform): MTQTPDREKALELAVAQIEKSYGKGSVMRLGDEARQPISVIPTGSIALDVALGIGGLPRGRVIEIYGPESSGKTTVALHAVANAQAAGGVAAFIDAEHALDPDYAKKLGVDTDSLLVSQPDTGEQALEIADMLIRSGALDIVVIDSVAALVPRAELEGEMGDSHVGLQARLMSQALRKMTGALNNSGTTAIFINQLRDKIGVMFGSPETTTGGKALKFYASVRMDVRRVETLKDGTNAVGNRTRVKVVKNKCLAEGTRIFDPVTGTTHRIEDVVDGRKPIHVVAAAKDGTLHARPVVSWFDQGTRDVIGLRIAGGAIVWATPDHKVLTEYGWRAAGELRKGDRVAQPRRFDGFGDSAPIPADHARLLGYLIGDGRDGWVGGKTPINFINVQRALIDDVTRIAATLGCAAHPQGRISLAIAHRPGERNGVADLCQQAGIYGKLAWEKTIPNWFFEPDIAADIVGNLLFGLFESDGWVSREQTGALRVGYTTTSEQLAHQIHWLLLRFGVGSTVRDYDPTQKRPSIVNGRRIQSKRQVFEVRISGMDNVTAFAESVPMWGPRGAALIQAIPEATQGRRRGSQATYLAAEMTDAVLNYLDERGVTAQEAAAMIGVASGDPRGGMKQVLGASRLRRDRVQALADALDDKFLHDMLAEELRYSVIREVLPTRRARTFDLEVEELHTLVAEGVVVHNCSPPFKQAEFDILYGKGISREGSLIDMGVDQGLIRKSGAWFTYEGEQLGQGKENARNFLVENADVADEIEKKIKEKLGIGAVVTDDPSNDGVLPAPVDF
Arbovirus inh: antivirals against arbovirus infection. arbovirus infection cell-based antiviral screen. inhibition, % at 10 µM. 200,000 tested, 0.37% active. AID 1251;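 active = inhibition from about 30%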;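 also: bluetongue infection of BSR cells; cell survival read as ATP light after 72 h; 0% = infected wells without compound and 100% = uninfected wells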
Arbovirus inh repeat: second read-out of Arbovirus inh, no call of its own (marks repeat the call); inhibition, %; measured here: 10K subset replicate screen; many hits read low in the repeat;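 first of two repeat runs on a subset; 0% = infected and 100% = uninfected wells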
Numbers without * were called inactive; ? = inconclusive; nt = no result given. The list is partial; rates above refer to the full screens.

A first look, 7 compounds:
SMILES	Mtb bLac sens	YopH PTP inh	Mtb growth	RecA splice inh	Arbovirus inh	others
CCc1ccc(N(CC)c2ncnc3nc[nH]c23)cc1	4.5	-28.3	11.4%	2.1	12.2
O=C(NCc1ccc2c(c1)OCO2)C12CN(Cc3ccccc3)CC1C(c1cccc([N+](=O)[O-])c1)=NO2 (centres undefined)	7.1	1.5	4.5%	9.5	15.4
O=C(Nc1ccc(Cl)cc1)C1CC=CCC1C(=O)OCC(F)(F)C(F)F (centres undefined)	-2.3	5.6	-7.7%	-1.6	11.5
Cc1cc(C)nc(NC(=S)Nc2ccc(F)cc2F)c1	-0.7	nt	-1.9%	0.2	-0.4
CC1(C)CC(=O)C/C(=N\NC(=O)C2CC23CCC3)C1 (centres undefined)	5.0	nt	-3.4%	nt	4.2
O=S(=O)(Nc1ccc(Cl)cc1)c1ccc(N2CCOCC2)c(NC(=S)NCCN2CCOCC2)c1	-8.6	nt	-8.1%	0.8	16.0
N=c1c2c(n(Cc3ccc(Br)cc3)c3c1CCC3)CCCC2	-1.5	-3.3	11.4%	0.4	-4.9

This part in full, from the start:
SMILES	Mtb bLac sens	YopH PTP inh	Mtb growth	RecA splice inh	Arbovirus inh	others
CCc1ccc(N(CC)c2ncnc3nc[nH]c23)cc1	4.5	-28.3	11.4%	2.1	12.2
O=C(NCc1ccc2c(c1)OCO2)C12CN(Cc3ccccc3)CC1C(c1cccc([N+](=O)[O-])c1)=NO2 (centres undefined)	7.1	1.5	4.5%	9.5	15.4
O=C(Nc1ccc(Cl)cc1)C1CC=CCC1C(=O)OCC(F)(F)C(F)F (centres undefined)	-2.3	5.6	-7.7%	-1.6	11.5
Cc1cc(C)nc(NC(=S)Nc2ccc(F)cc2F)c1	-0.7	nt	-1.9%	0.2	-0.4
CC1(C)CC(=O)C/C(=N\NC(=O)C2CC23CCC3)C1 (centres undefined)	5.0	nt	-3.4%	nt	4.2
O=S(=O)(Nc1ccc(Cl)cc1)c1ccc(N2CCOCC2)c(NC(=S)NCCN2CCOCC2)c1	-8.6	nt	-8.1%	0.8	16.0
N=c1c2c(n(Cc3ccc(Br)cc3)c3c1CCC3)CCCC2	-1.5	-3.3	11.4%	0.4	-4.9
O=C(c1ccco1)N1CCN(C(=O)c2ccc(Cn3cc(Br)cn3)o2)CC1	-3.2	-1.7	nt	1.4	-1.2
O=C(Nc1cccc(S(=O)(=O)N2CCCC2)c1)c1cccnc1	-3.8	nt	nt	-2.5	nt
COC(=O)c1cc2sc(Cl)cc2n1CC(=O)Nc1cccc(SC)c1	-0.5	-6.8	1.4%	11.4	9.6
Cc1ccc(C)c(C(=O)c2ccccc2NC(=O)c2ccccn2)c1	2.8	nt	nt	1.9	nt
O=C1SCCC1NC(=O)C(c1ccccc1)c1ccccc1 (centres undefined)	-2.6	nt	3.9%	0.5	nt
N=C(N)SCCc1cccc(CCSC(=N)N)c1	3.1	nt	-6.6%	20.0	nt
CN(C)S(=O)(=O)c1cccc(NC(=S)N/N=C/C2CC=CCC2)c1 (centres undefined)	-1.2	nt	-2.3%	5.7	-4.4
O=c1[nH]c(CN2CCN(S(=O)(=O)c3ccccc3C(F)(F)F)CC2)nc2sc3c(c12)CCCC3	43.1	-9.8	12.0%	-16.2	9.8
COc1ccc(S(=O)(=O)N2CCN(c3ccccn3)CC2)cc1[N+](=O)[O-]	-3.3	nt	-5.2%	-5.7	nt
CCc1nnc(NC(=O)c2cc(C)nc3ccccc23)s1	3.1	nt	-1.1%	-2.9	-2.3
O=C(CN1C(=O)c2ccccc2S1(=O)=O)c1ccccc1	-7.7	-45.7	-5.3%	8.7	7.7
CCCn1c(/N=C/c2ccccc2O)nc2ccccc21	-1.0	-3.7	-5.7%	nt	7.7
Cc1ccc(NC(=O)CCCCCN2C(=O)c3ccccc3C2=O)nc1	6.5	-28.6	-4.8%	0.9	-3.2
CC1CCN(c2c(NCc3ccc(C(=O)N4CCN(C5CCCCC5)CC4)cc3)c(=O)c2=O)CC1	1.6	-30.9	nt	0.6	-2.9
COc1ccc(CN(Cc2ccc(C(=O)O)cc2)C(=S)Nc2ccccc2C)cc1OC	3.9	nt	6.1%	1.5	-2.9
C=C1CCN([C@H](C(=O)OCc2ccc(C)cc2)C(C)C)S(=O)(=O)c2ccccc21	6.8	nt	-8.5%	nt	nt
Cn1c(SCC(=O)N2CCCc3ccccc32)nc2ccccc2c1=O	60.9	1.9	6.9%	5.2	-4.2
NCCCCCc1nnc(SCC(N)=O)o1	-2.5	nt	-1.6%	-0.9	1.1
COc1cc(/C=N/n2cnnc2)ccc1Oc1nc(Cl)ncc1F	-9.6	nt	-0.8%	1.6	23.5
COc1cccc(/C=C/C(=O)OCCN2C(=O)c3ccccc3C2=O)c1	2.2	nt	nt	0.8	nt
CCOC(=O)CN(Cc1sccc1C)C(=O)Nc1ccc(OCC)cc1	?	-29.8	3.7%	2.9	-1.1
C#CCSc1nnnn1-c1ccc(Br)c(C)c1	-2.5	nt	3.0%	3.1	nt
N#Cc1ccc(C(=O)OCC(=O)Nc2ccc(S(N)(=O)=O)cc2)cc1	-5.3	nt	-2.3%	1.0	nt
Cc1ccc(S(=O)(=O)Nc2ccc(-c3csc(-c4ccccc4)n3)cc2)cc1	4.1	-34.9	2.9%	-2.6	-40.5
O=C(NCCC1=CCCCC1)c1cnsn1	0.3	3.9	11.0%	0.8	1.0
Cc1ccc(S(=O)(=O)NCCC(=O)Nc2nnc(C)s2)cc1	-0.7	-6.3	0.9%	1.2	-1.8
COc1ccc(CCN2C(=NC(=O)C(C)C)SC3CS(=O)(=O)CC32)cc1OC (centres undefined)	-4.8	nt	nt	0.8	nt
CCc1ccc(C(=O)COC(=O)c2cncc(Br)c2)cc1	56.6	nt	41.2%	-0.2	4.3
CC(C)CN(C(=O)COC(=O)CCc1c[nH]c2ccccc12)c1c(N)n(Cc2ccccc2)c(=O)[nH]c1=O	1.3	nt	nt	0.7	nt
CCOC(=O)c1c(C)[nH]c(C(=O)OC/C(O)=C(\C#N)c2nc3ccccc3[nH]2)c1C	0.6	-44.9	4.1%	nt	9.3
COCCn1c(SCC(=O)Nc2ccc(NC(C)=O)cc2)nc2c([nH]c3ccccc32)c1=O	-6.1	nt	nt	-1.0	nt
O=C(O)c1ccccc1C(=O)NNc1ccc(F)cc1F	93.4	nt	nt	-6.2	-30.8
O=C(Nc1ccc(-c2nc3ccccc3[nH]2)cc1)C1CCCO1 (centres undefined)	-2.8	1.4	-19.6%	-1.1	-17.2
CCCCn1c(N)c(N(CCOC)C(=O)c2ccc(-c3ccc(C(C)=O)cc3)o2)c(=O)[nH]c1=O	-3.9	nt	nt	-17.7	nt
Cc1ccc2nc(-c3ccccn3)cc(C(=O)Nc3ccc4c(c3)OCO4)c2c1	2.2	nt	2.4%	-3.0	-0.4
Cc1cc(NC(=O)CN2C(=O)/C(=C/c3ccccc3F)SC2=S)no1	10.1	nt	nt	-0.2	nt
CC(=O)Nc1ccc(NC(=O)C(Cc2ccccc2)NC(=O)C2CCCCC2)cc1 (centres undefined)	0.3	-9.3	-5.5%	-1.0	14.2
Cc1noc(NS(=O)(=O)c2ccc(NC(=O)c3cnc4n(c3=O)CCS4)cc2)c1C	30.4	26.6	-6.2%	-1.0	4.7
CCCC(=O)N(c1ccc(F)cc1)C1C=CS(=O)(=O)C1 (centres undefined)	-0.2	-27.5	0.7%	0.3	0.0
Cc1ccccc1-c1nn(-c2ccc(F)cc2F)cc1CNCCCO	1.5	nt	-8.9%	1.8	-0.8
CCOc1ccc(Oc2ccc(S(=O)(=O)N3CCOCC3)cc2N)cc1	1.4	nt	2.8%	-2.7	9.2
CN=C(Nc1cccnc1)c1ccccc1	-1.8	nt	nt	0.2	nt
CC(=O)Nc1ccc(CN2CCCN(C)CC2)cc1	-4.5	nt	nt	-0.3	nt
CCC(C)c1ccc(NC(=S)NN2CCOCC2)cc1 (centres undefined)	-1.4	-23.5	1.4%	1.4	1.7
CSc1nc(C)cc(OCC(=O)N/N=C/c2ccccc2O)n1	2.3	-17.1	-3.4%	-4.6	-27.1
CCCN(CCC)c1nc(C#N)nc(N(CCC)CCC)n1	-4.2	nt	-7.8%	15.9	-2.6
CC(Oc1ccc(F)cc1)C(=O)Nc1cc(C(F)(F)F)ccc1-n1cncn1 (centres undefined)	-12.4	nt	nt	4.2	nt
Cn1c(CCn2ccccc2=O)nc2cc(NC(=O)COc3ccccc3)ccc21	-3.3	nt	nt	2.5	nt
O=c1c2ccccc2nc(COc2ccccc2)n1/N=C/c1cn[nH]c1-c1ccccc1	0.6	-29.9	2.9%	-1.2	-6.7
COc1ccc(NC(=O)c2ccccc2-c2ccccc2)cc1	53.4	nt	11.3%	2.0	-1.1
C=CCN1C(=O)C(Cc2cccc(C)c2)SC1=Nc1ccc(C(=O)O)cc1 (centres undefined)	-7.9	-20.0	4.7%	0.6	10.6
Cc1cccc(NC(=O)c2ccc(C(=O)c3ccccc3)cc2)n1	28.9	nt	nt	1.4	nt
CC(C)c1ccc(-c2nc(N3CCCC3)nc3n[nH]c(N)c23)cc1	-3.9	-40.1	-10.5%	-2.2	-1.5	Arbovirus inh repeat=-5.6

More records:
SMILES	Mtb bLac sens	YopH PTP inh	Mtb growth	RecA splice inh	Arbovirus inh	others
COc1ccc(Cl)cc1N(CC(=O)Nc1ccccc1SC)S(C)(=O)=O	-11.0	-29.4	2.3%	-11.7	-2.6
O=C(CSCC(=O)N1CCCCC1)Nc1nc(-c2cccs2)cs1	-9.6	-3.4	31.1%	2.8	-0.4
CC(C)c1ccc(NC(=S)N2CCCC(c3ccc(F)cc3)=N2)cc1	89.6	nt	6.1%	nt	nt
COc1cc(C2C(C#N)=C(N)Oc3n[nH]c(-c4cccnc4)c32)ccc1OCC(N)=O (centres undefined)	1.0	nt	2.9%	46.3*	nt
Cc1cc2ncn(CCCCOc3ccccc3)c2cc1C	82.6	-9.5	-2.3%	4.7	-15.0
CN(C)S(=O)(=O)c1cccc(NC(=O)c2ccccc2OCc2ccc(F)cc2)c1	4.5	nt	nt	0.5	nt
CSc1nc2nccc(-c3ccc(-c4ccccc4)cc3)n2n1	31.6	2.6	1.9%	2.1	-23.9
CCn1c(C)nc2cc(C(=O)NNC(=S)NC(=O)c3ccccc3)ccc21	86.3	nt	2.4%	-4.6	6.4
Nc1nn(-c2ccccc2)c2ccc([N+](=O)[O-])cc12	4.9	nt	nt	-1.6	nt
COc1cccc(C(=O)Nc2c3c(nn2-c2cccc(C)c2C)CS(=O)C3)c1OC (centres undefined)	-12.2	-25.8	-1.6%	-2.4	-0.7
COc1ccc(/C=C2\SC(=S)N(CCC(=O)NCCCN3CCOCC3)C2=O)cc1	-1.7	nt	nt	5.3	nt
COc1ccc(-c2nnc3n2-c2ccccc2SC3)cc1OC	9.3	-10.1	-8.0%	0.9	2.7
CCS(=O)(=O)C1=NSC2=NC(=O)/C(=C\c3ccc(OS(=O)(=O)c4ccccc4)c(OC)c3)C(=N)N21	2.2	nt	nt	8.1	nt
COc1ccc(C(=O)N2CC3(CC(c4ccc(Cl)cc4)=NO3)C[C@H]2C(=O)NCC(N)=O)cc1 (some centres undefined)	-0.3	-19.4	4.5%	-2.0	0.2
CCOc1ccc2c(c1)C(=NNC(=O)c1ccncc1)c1cc(OCC)ccc1-2	96.7	-23.8	?	8.3	-12.5
O=C(CCc1n[nH]c(=O)[nH]c1=O)N1CCOCC1	-6.7	-57.5	-1.2%	-2.0	0.3
CC1=C(C(=O)Nc2ccccc2C(=O)NCCCN2CCN(C)CC2)SCCO1	-6.8	nt	nt	-0.2	nt
CCOc1ccc(OC(=O)c2cccc(S(=O)(=O)N3CCN(C)CC3)c2)cc1	-12.6	nt	nt	-1.3	nt
CCCc1nc2ccccc2c(=O)n1-c1cccc(OC)c1	-2.1	-22.8	2.3%	-0.3	-2.1
Fc1ccccc1CSc1nnc(Cn2cnc3ccccc32)n1-c1ccccc1	-1.9	32.6	0.8%	7.9	5.0
CCCCCCCCCCCCC/C=C/[C@@H](O)[C@@H](N)CO	3.6	nt	nt	25.3	nt
COc1ccc2[nH]c(C(=O)Nc3ccc(C)c(F)c3)cc2c1	3.4	nt	-2.4%	1.8	nt
CCOCCCN(C(=O)c1snc(C(N)=O)c1N)C(C(=O)NC(C)(C)C)c1ccc(Cl)cc1 (centres undefined)	0.4	nt	nt	0.6	nt
CN(CC(=O)Nc1cccc(Cl)c1)S(=O)(=O)c1ccc2c(c1)n(C)c(=O)c(=O)n2C	17.1	nt	nt	0.8	nt
CCN(C(=O)c1ccc(NC(C)=O)cc1)c1ccccc1C	-19.4	-18.8	0.3%	-0.7	5.5
CCN(CC)S(=O)(=O)c1ccc2oc(Nc3ccc4c(c3)OCCO4)nc2c1	-1.4	12.8	6.7%	-0.2	-10.4
